# Polio RdRp inh: inhibitors of poliovirus RNA polymerase binding and polymerization. P03300. poliovirus polymerase elongation, fluorescence polarization; hits give low values. % elongation, % (compound at 16.7 µg/mL). 0.66% of 150,000 active; in the data active = % elongation below about 90%; note: some results filed as inactive read as strong as hits
# Target sequence (P03300 1749-2209 limits assumed): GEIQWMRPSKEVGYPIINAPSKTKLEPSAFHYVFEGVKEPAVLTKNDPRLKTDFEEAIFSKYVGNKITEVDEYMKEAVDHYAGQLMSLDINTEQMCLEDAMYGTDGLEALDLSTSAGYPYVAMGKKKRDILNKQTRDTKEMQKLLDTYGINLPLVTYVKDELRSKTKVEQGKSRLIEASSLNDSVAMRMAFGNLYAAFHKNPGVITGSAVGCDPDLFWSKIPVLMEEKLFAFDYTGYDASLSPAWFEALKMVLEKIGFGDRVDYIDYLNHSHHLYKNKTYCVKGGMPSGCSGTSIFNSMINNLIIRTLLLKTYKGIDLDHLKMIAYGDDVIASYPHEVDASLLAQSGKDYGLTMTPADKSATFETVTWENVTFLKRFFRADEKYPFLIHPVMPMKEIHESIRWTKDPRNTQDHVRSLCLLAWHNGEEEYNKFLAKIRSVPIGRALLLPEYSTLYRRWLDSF
# Polio RdRp inh intensity: further read-out of Polio RdRp inh, marked with its call; % elongation; measured here: total intensity read-out; formula for this scale not given here;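 total fluorescence in place of polarization; lower means less elongation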
# Starred values were filed as active, the others as inactive.
# Fields: Polio RdRp inh | Polio RdRp inh intensity
CCOc1ccc(OCC)c(NS(=O)(=O)c2ccc3c(c2)CCCN3C(C)=O)c1
 : 104 | 106
CCCCn1c(NCc2cc(Br)ccc2O)nc2ccccc21
 : 106 | 110
CCCCNC(=O)c1ccc(-c2nc(CN3CCc4ccccc43)c(C)o2)cc1
 : 101 | 99
Cc1cccc(C(=O)N(Cc2nc(-c3ccc(Cl)cc3)no2)C(C)C)c1
 : 100 | 86
CN1CCc2nc3sc(C(=O)Nc4c(F)cccc4F)c(N)c3cc2C1
 : 97 | 99
Cc1c(Cl)cccc1NS(=O)(=O)c1ccc2[nH]cc(C(=O)NC3CCCC3)c(=O)c2c1
 : 107 | 107
COc1cccc(Nc2sc(C(=O)c3ccc(F)cc3)c(N)c2C(=O)NCc2ccc(C)cc2)c1
 : 117 | 117
Cc1cc(Cl)ccc1-n1c(CCC(=O)O)ccc1-c1cccs1
 : 110 | 110
Cc1cccc(NC(=O)CN2c3ccccc3S(=O)(=O)c3ccccc32)c1C
 : 99 | 108
COc1cccc(C(=O)NC(=O)Nc2ccc(-n3nc(C(F)(F)F)cc3C(F)(F)F)cc2)c1
 : 103 | 104

# Whole records, quoted from the list. Screens in order: Polio RdRp inh, Polio RdRp inh intensity
# CCCCNC(=O)c1ccc(-c2nc(CN3CCc4ccccc43)c(C)o2)cc1 as listed: 101, 99
# CCOc1ccc(OCC)c(NS(=O)(=O)c2ccc3c(c2)CCCN3C(C)=O)c1 as listed: 104, 106

# 2 entries from above, as labelled records:
Cc1cccc(NC(=O)CN2c3ccccc3S(=O)(=O)c3ccccc32)c1C
  Polio RdRp inh: 99	Polio RdRp inh intensity: 108
COc1cccc(C(=O)NC(=O)Nc2ccc(-n3nc(C(F)(F)F)cc3C(F)(F)F)cc2)c1
  Polio RdRp inh: 103	Polio RdRp inh intensity: 104

# New compounds follow
# Fields: Polio RdRp inh | Polio RdRp inh intensity
CC1CCc2c(sc3nnn(CCCCOc4ccc(Cl)cc4)c(=O)c23)C1 (configuration not stated)
 : 110 | 94
Cc1cc(OCC(=O)Nc2ncn[nH]2)ccc1Cl
 : 103 | 103
COc1ccc(-n2ncc(C(=O)NCCc3ccsc3)c2C2CCN(C(=O)OC(C)(C)C)CC2)cc1
 : 110 | 110
CCOc1ccccc1N1CC(c2nc3ccccc3n2CCOc2ccc(OC)cc2)CC1=O (configuration not stated)
 : 104 | 109
Cc1ccc(CCNc2ncnc3onc(C)c23)cc1
 : 109 | 102
COc1ccccc1N1CCN(C(=O)CNS(=O)(=O)c2ccc(Br)s2)CC1
 : 108 | 102
Cc1oc(-c2cccc(Br)c2)nc1CN1CCC(C(=O)NCCc2ccc(Cl)cc2)CC1
 : 107 | 108
Cc1ccc(C2=CC(c3ccccc3F)n3c(nc4ccccc43)N2)cc1C (configuration not stated)
 : 103 | 121
O=C(Nc1ccc(Cl)cc1)c1cc(S(=O)(=O)N2CCc3ccccc32)ccc1F
 : 107 | 103
CCOC(=O)Cc1ccc(NC(=O)N(Cc2ccc(CC)cc2)Cc2cn[nH]c2-c2ccc(OC)cc2)cc1
 : 105 | 107
N#Cc1ccccc1NC(=O)C(=O)NCCc1csc(-c2ccc(C(F)(F)F)cc2)n1
 : 109 | 111
CCC(Sc1nncn2c1cc1occc12)C(=O)Nc1ccc(C)c(Cl)c1 (configuration not stated)
 : 104 | 107
COc1ccccc1N1CCN(S(=O)(=O)CCNC(=O)COc2ccc(F)cc2)CC1
 : 102 | 96
C#CCOc1ccc(-c2nnc(Nc3ccc(NC(C)=O)cc3)c3ccccc23)cc1
 : 105 | 111
COc1ccc(CNCCSc2nnnn2-c2ccccc2)c(OC)c1
 : 108 | 108
N#C/C(=C\c1ccc(-c2ccc(C(=O)O)cc2)o1)c1nc2ccccc2[nH]1
 : 84 | 232
COc1ccc(-c2nc(Cn3c(SCc4ccccc4F)nc4cccnc43)c(C)o2)cc1
 : 114 | 112
CCn1cc(S(=O)(=O)c2ccc(C)cc2)c(=O)c2cc(F)c(N3CCCCCC3)cc21
 : 114 | 115
O=C(Cn1cc(S(=O)(=O)Cc2ccc(F)cc2)c2ccccc21)NCc1ccccc1Cl
 : 107 | 102
COc1cccc(CNC(=O)c2ccc3oc(=O)n(Cc4ccccc4)c3c2)c1
 : 107 | 104
COc1ccc(Cl)cc1NC(=O)CSc1nc(=O)[nH]c2c1CCCC2
 : 101 | 99
CC(C)Cn1c(-c2ccc(S(=O)(=O)N3CCCC3)cc2)csc1=Nc1ccccc1
 : 104 | 107
COc1ccc(NC(=O)c2cc(C(C)=O)n3ccccc23)cc1
 : 110 | 111
O=C(CSc1nc(=O)n(Cc2ccccn2)c2c1CCC2)Nc1ccccc1
 : 105 | 101
O=C(Cn1c(=O)n(-c2ccc(Cl)cc2)c(=O)c2sc3ccccc3c21)NC1CCCC1
 : 109 | 112
CCc1ccccc1N(C)S(=O)(=O)c1ccc2[nH]cc(C(=O)NCCOC)c(=O)c2c1
 : 107 | 113
Cc1ccc(S(=O)(=O)CC(=O)N2CCN(c3nc4c(F)cccc4s3)CC2)cc1
 : 110 | 117
CC1=C(C(=O)Nc2cc(Cl)ccc2C)C(c2sccc2C)n2ncnc2N1 (configuration not stated)
 : 111 | 109
CCOC(=O)c1cc(OC(=O)c2cc(OC)c(OC)c(OC)c2)n(-c2ccccc2)n1
 : 103 | 106
Cc1cc(C)n2nc(SCC(=O)Nc3ccccc3C)nc2n1
 : 107 | 103
COc1ccc(OCC(=O)N2CCC(c3nc4ccccc4s3)CC2)cc1
 : 109 | 111
CCOC(=O)C1=C(CN(C)Cc2ccccc2)NC(=O)NC1c1ccc(OC(C)C)cc1 (configuration not stated)
 : 108 | 109
Cc1ccc(S(=O)(=O)N2CCCc3cc(NC(=O)c4cccc(Cl)c4)ccc32)cc1
 : 107 | 110
Cc1ccc2c(CNC3CCCCC3)c(C(=O)O)n(Cc3ccc(F)cc3)c2c1
 : 112 | 113
CCOc1ccc(CNC(=O)CCCn2nc(C)c3c(C)n(-c4ccc(C)cc4)nc3c2=O)cc1
 : 109 | 107
O=C(Nc1ccc2c(c1)OCCO2)c1cccn(Cc2cccc(F)c2)c1=O
 : 105 | 106
Cc1cc(NC(=O)C2CCCN(S(=O)(=O)c3ccc(Br)s3)C2)ccc1Br (configuration not stated)
 : 106 | 106
O=C(CSc1nc2c(c(=O)[nH]1)CCC2)Nc1ccccc1C(F)(F)F
 : 103 | 103
CC(=O)Nc1nonc1-c1nnc(SCC(=O)Nc2ccc(F)cc2F)n1-c1ccccc1
 : 107 | 106
CCc1ccc(OCC(=O)NCc2nc(-c3cccc(C)c3)no2)c(Br)c1
 : 105 | 103

# More compounds follow.
mol | Polio RdRp inh | Polio RdRp inh intensity
Cc1cccc(CN2CCC(CNc3ncnc4onc(-c5ccc(Cl)cc5)c34)CC2)c1 | 107 | 109
O=C(CCc1nc(-c2ccccc2F)no1)Nc1cccc(C(F)(F)F)c1 | 98 | 100
COc1ccccc1NC(=O)CSc1nc(-c2ccccc2F)nc2cc(=O)[nH]n12 | 100 | 101
CCOC(=O)C1CCCN(C(=O)Cn2ncc3c(C)n(Cc4ccccc4Cl)c(C)c3c2=O)C1 (configuration not stated) | 105 | 101
CCOc1ccc(NC(=O)C2CCN(S(=O)(=O)c3cc(-c4noc(C)n4)ccc3C)CC2)cc1 | 111 | 110
CCn1cc(C(=O)NCCc2ccc(OC)c(OC)c2)c(=O)c2cc(S(=O)(=O)N(C)C3CCCCC3)ccc21 | 110 | 108
O=C(Nc1ccc2c(c1)N(C1CCCC1)C(=O)c1ccccc1S2)c1ccc(F)cc1 | 100 | 105
COc1ccc(CCNC(=O)CCCn2c(=O)c3cccn3c3ccc(F)cc32)cc1OC | 112 | 105
Cc1cc(C)c2c(n1)nn1c(C)c(CCC(=O)Nc3ccc(C)c(Cl)c3)c(C)nc21 | 99 | 102
O=c1n(Cc2ccc(F)cc2Cl)c2ccccc2c2nc(-c3ccccc3)nn12 | 106 | 105
CCc1ccc(C(=O)COC(=O)C(Cc2c[nH]c3ccccc23)NC(=O)c2ccc(Br)cc2)cc1 (configuration not stated) | 107 | 104
COc1ccccc1/C=C/C(=O)Nc1nc2n(n1)C(c1ccc(F)cc1)C=C(c1ccccc1)N2 (configuration not stated) | 109 | 107
CCC12CN3CC(CC)(CN(C1)C3c1c(C)[nH]c(=O)[nH]c1=O)C2=O (configuration not stated) | 110 | 112
CC1CCN(S(=O)(=O)c2cc(C(=O)NCCc3ccccc3)n(C)c2)CC1 | 110 | 97
Cc1ccc(NC(=O)C(=O)NCC(c2cccnc2)N2CCN(Cc3ccccc3)CC2)cc1Cl (configuration not stated) | 110 | 112
CCN1C(C(=O)c2ccccc2)=C(OC(=O)COc2ccccc2)c2ccccc2S1(=O)=O | 110 | 116
Cc1ccc(Cl)cc1NC(=O)CN1C(=O)c2cccc3cccc1c23 | 103 | 106
COc1ccc(NC(=O)c2c(NCc3cccs3)sc3c2CCCCC3)c(OC)c1 | 118 | 126
COc1ccccc1CNC(=O)c1ccc(-n2c(C)cc3c2CCCC3)cc1 | 111 | 115
O=S(=O)(NCc1ccccc1)c1ccc(-c2cnc(C3CC3)o2)cc1 | 112 | 115
COc1ccc(Nc2c(-c3ccc(C)o3)nc3cc(C)ccn23)cc1 | 105 | 95
CCOC(=O)c1c(C)oc2nc(C)nc(N3CCN(c4ccc(OC)cc4)CC3)c12 | 112 | 111
CCOC(=O)c1c(NC(C)=O)c2c3c(sc2n1Cc1c(C)cc(C)cc1C)CCCC3 | 112 | 114
CC(C)CCNC(=O)CSc1c2c(nc3ccc(Cl)cc13)CCCC2 | 107 | 109
CCOc1ccc(CCNC(=O)CS(=O)Cc2nc(-c3ccc(C)cc3)oc2C)cc1OCC (configuration not stated) | 108 | 112

# A different layout for some results above:
O=S(=O)(NCc1ccccc1)c1ccc(-c2cnc(C3CC3)o2)cc1
  Polio RdRp inh: 112 | Polio RdRp inh intensity: 115
COc1ccc(Nc2c(-c3ccc(C)o3)nc3cc(C)ccn23)cc1
  Polio RdRp inh: 105 | Polio RdRp inh intensity: 95
CCOC(=O)c1c(C)oc2nc(C)nc(N3CCN(c4ccc(OC)cc4)CC3)c12
  Polio RdRp inh: 112 | Polio RdRp inh intensity: 111
CCOC(=O)c1c(NC(C)=O)c2c3c(sc2n1Cc1c(C)cc(C)cc1C)CCCC3
  Polio RdRp inh: 112 | Polio RdRp inh intensity: 114

# More entries follow.
mol | Polio RdRp inh | Polio RdRp inh intensity
Cc1ccc(C)c(CN2CCC(CNC(=O)Cn3ncc4c([nH]c5ccccc54)c3=O)CC2)c1 | 111 | 117
COc1ccc(NC(=O)C2CCC(CNS(=O)(=O)c3ccc4c(c3)C(C)(C)C(=O)N4C)CC2)cc1 (configuration not stated) | 110 | 114
COc1ccc(C(CC(=O)Nc2ccc(OC)c(OC)c2)N2Cc3ccccc3C2=O)cc1 (configuration not stated) | 101 | 105
COc1ccc(-c2cnc(C)o2)cc1S(=O)(=O)Nc1ccc(OC(F)(F)F)cc1 | 107 | 114
O=C(COc1ccccc1Cl)Nc1nc2c(s1)CCCC2 | 99 | 103
Cc1cccn2c(=O)cc(COc3cccc(NC(=O)c4ccccc4F)c3)nc12 | 108 | 112
COc1ccccc1C(c1c(O)cc(C)n(Cc2ccco2)c1=O)N1CCCCC1 (configuration not stated) | 108 | 112
Cc1c(C(=O)OC2CCC(C)CC2)[nH]c2c1C(=O)CC(c1ccccc1Cl)C2 (configuration not stated) | 108 | 110
Cc1cccc(C(=O)Nc2cc3c(cc2N2CCCCC2)n(C)c(=O)c(=O)n3C)c1 | 107 | 110
CCN(c1ccccc1)S(=O)(=O)c1ccc(NC(=O)c2cc(=O)c3c(C)cc(C)cc3o2)cc1 | 108 | 117
CCOc1ccc(NC(=O)CSc2nccn2C2CCCC2)cc1 | 109 | 111
Cc1cccc(-n2ncc3c(N4CCN(CCO)CC4)ncnc32)c1 | 103 | 112
COc1ccc(OC)c(CCNC(=O)c2sc3nc4n(c(=O)c3c2C)CCCC4)c1 | 106 | 110
CSc1ncc(Cl)c(C(=O)Nc2ccc(S(=O)(=O)N3CCCC(C)C3)cc2)n1 (configuration not stated) | 124 | 120
O=C(Cn1cnc2nc3c(cc2c1=O)CCCC3)Nc1ccc(F)cc1Cl | 108 | 105
O=C(c1ccc2c(c1)N(Cc1cccc(F)c1)C(=O)c1ccccc1S2)N1CCOCC1 | 112 | 108
CCCCn1c(=NC(=O)c2cc3ccccc3o2)c(C(=O)OCC)cc2c(=O)n3ccccc3nc21 | 104 | 107
CCc1ccc(NC(=O)CC(c2cc(OC)c(OC)c(OC)c2)N2Cc3ccccc3C2=O)cc1 (configuration not stated) | 106 | 111
COc1ccc(S(=O)(=O)c2c(C)c(NS(=O)(=O)c3ccccc3)cc(C)c2O)cc1 | 109 | 110
CN(C(=O)CSc1cn(CC(=O)N2CCCCC2)c2ccccc12)c1ccccc1 | 119 | 122
Cc1cc(C)n2nc(CNC(=O)c3ccccc3Cl)nc2n1 | 104 | 103
COc1ccc(-c2cn3cccnc3n2)cc1NC(=O)Nc1ccc(Cl)cc1 | 109 | 113
COc1ccc(OCC(=O)NCC(c2ccc(OC)cc2)N2CCOCC2)cc1 (configuration not stated) | 100 | 93
CCC(C(=O)Nc1ccc(C)c(C)c1)n1c(=O)c(C(F)(F)F)nc2ccccc21 (configuration not stated) | 110 | 112
Cc1cccc(C)c1OCCCCn1c(C2CC(=O)N(c3ccc(F)cc3)C2)nc2ccccc21 (configuration not stated) | 105 | 99
Nc1c(C(=O)Nc2cccc(C(F)(F)F)c2)c2ccccn2c1C(=O)c1ccccc1 | 104 | 105
CCn1ccc2cc(S(=O)(=O)N3CCCN(C(=O)Nc4ccc(C)cc4Cl)CC3)ccc21 | 106 | 114
O=C(NCc1ccccc1F)C(=O)NCC(c1ccc2c(c1)OCO2)N1CCOCC1 (configuration not stated) | 111 | 113
CCS(=O)(=O)N1CCCc2cc(C(=O)Nc3cc([N+](=O)[O-])ccc3C)ccc21 | 106 | 115
Cc1ccc2nc(-c3ccc(NC(=O)COc4ccccc4)cc3)sc2c1 | 103 | 111

# Screens as filed in PubChem BioAssay.

# The list is partial. The share of hits here may be higher or lower than overall.
